Source: PubChem
BasE inh: blocks the Acinetobacter baumannii siderophore enzyme BasE; purified BasE, fluorescence polarization binding displacement; inhibition, % (test concentration not listed); 0.1% of 84,000 active;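 active = both replicates above 25% with normal brightness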;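 also: 0% = negative plate control signal and 100% = positive plate control signal; stock transfer was 100 nL into about 30 µL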
LANA-nucl inh: LANA-nucleosome interaction inhibition | FITC-LANA1-23 / chicken nucleosome fluorescence polarization; active compounds read low | z-score (concentration not given with the values) | 0.3% of 51,000 active | AID 720717;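 active = both repeat wells score below -2 in polarization z-score versus plate sample wells, excluding overly bright wells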;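 also: 100 nL library stock added to about 30 µL; numbers are from one replicate; some results filed as inactive read as strong as hits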
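Material: Purified chicken nucleosomes with FITC-labelled LANA N-terminal peptide (1-23) | Reagent: 50 nM FITC-LANA1-23 probe | Medium: TEN-BT buffer, pH 7.5 | Times: 10–45 min incubation at room temperature | Detection: Fluorescence polarization | Replication: Duplicates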
The depositor's hits bear a star; x = no result given; & = joins results of further samples. Only part of the results is shown; count on the stated rates, not on these rows.

SMILES	BasE inh	LANA-nucl inh
O=C(OCC(=O)N1CCOCC1)c1ccc(Cl)cc1	0.5	x
NC(=O)C1CCN(c2c(Cl)cncc2Cl)CC1	x	-0.0245
CN(C)C(=O)CSc1nnc(C23CC4CC(CC(C4)C2)C3)o1	2.4	-1.42
Cc1cnc(NC(=O)c2ccco2)s1	-2.2	x
O=C(CN1C(=O)CSc2ncccc21)NCc1ccccc1	1.0	0.303
COc1cc(C(=O)OCc2cc(=O)c(O)co2)ccc1OC(F)F	2.8	x
CCCCC1(COC(=O)c2ccc(OC)cc2)C(=O)N(c2ccccc2)N(c2ccccc2)C1=O	-1.2	x
CCOC(=O)C(CC)Sc1nnc(COc2ccc(Cl)c(C)c2)n1CC (stereo not given)	3.4	0.403
CC1CCN(c2nc3ccccc3nc2N2CCC(C)CC2)CC1	0.9	x
N#CC1(NC(=O)COC(=O)c2ccccc2C(F)(F)F)CCCC1	-0.9	x
CCn1cc(S(=O)(=O)N2CCc3ccccc3C2)cn1	2.2	-0.358
Clc1ccc(CSc2nc3ccccc3s2)cc1	1.1	x
O=C(Nc1cccnc1)c1cccs1	2.7	0.263
O=C(Cc1ccc(F)cc1)N1CCCCC1	-1.9	-0.379
CCOC(=O)Cc1csc(NC(=O)CSc2nc(=O)[nH]c3c2CCC3)n1	-1.0	-0.388
CCNC(=O)c1cccc(OCc2c(C)noc2C)c1	0.6	x
CCOC(=O)C(Cc1ccccc1)C(=O)Nc1nccs1 (stereo not given)	-2.7	-0.684
COC(=O)C1=C(C)N(C(C)C)C(=O)C1(NC(=O)C1CCCCC1)C(F)(F)F (stereo not given)	-1.6	0.7
CCCNC(=S)N1CCC(NC(=O)Nc2ccc(C)cc2)CC1	2.4	-0.924
COCC(=O)Nc1c(C)cc(C)cc1C	2.0	-0.0185
CC(NC(=O)Nc1ccccn1)N1C(=O)C2C3C=CC(C3)C2C1=O (stereo not given)	-0.3	x
COC(=O)c1sccc1N/N=C1\C(=O)c2ccccc2N(C)S1(=O)=O	-5.0	1.7
O=C(COc1ccccc1)Nc1nc2cc3c(cc2s1)OCO3	-0.9	-1.63
Cc1ccc(C=Nc2ccccc2Sc2c(C)n[nH]c2C)cc1	2.5	x
COc1ccc(Cn2c(=O)[nH]c3cc(C(=O)N4CCN(c5ccc(OC)cc5)CC4)ccc3c2=O)cc1	2.3	-0.527

Later entries
SMILES	BasE inh	LANA-nucl inh
CCc1c(C)sc(NC(=S)NCc2ccco2)c1C(=O)OC	2.5	-0.271
NCCCSc1ccccc1	-0.7	x
CCc1ccc2nc(NC(=O)CCc3c(C)noc3C)sc2c1	-6.8	x
N#CC1(c2nc3ccccc3[nH]2)Cc2ccccc2N2CCCCC21 (stereo not given)	-1.0	x
COC(=O)c1cc2n(n1)CCCNC2=O	x	-0.286
CCOC(=O)Cc1cc(=O)[nH]c(/N=C(\N)Nc2ccc(C)cc2C)n1	0.5	-0.0075
CC(C)(C)C(=O)CSc1nnc(Nc2ccccc2)s1	1.8	x
Nn1c(SCCCC(=O)c2ccc(F)cc2)nnc1-c1cccnc1	-6.7	x
O=C(NC(=S)Nc1ccccc1)c1ccc2nonc2c1	-0.6	0.591
Cc1ccc(-c2nc(C)sc2CC(=O)NC2=NCCS2)cc1	0.2	x
Cc1ccc(-c2noc(CCC(=O)NCCN3CCN(c4cccc(Cl)c4)CC3)n2)cc1	1.1	0.442
Cc1ccc2c(COC(=O)CN3C(=O)C4CC=CCC4C3=O)cc(=O)oc2c1 (stereo not given)	-1.4	x
CCSc1nnc2n(Cc3ccccc3OC)c(=O)c3ccccc3n12	0.8	x
COc1ccc(C(=O)COC(=O)c2ccc3c(=O)n4c(nc3c2)CCCCC4)c(OC)c1	1.4	x
CS(=O)(=O)NC1c2cccc3cccc(c23)C1N1CCOCC1 (stereo not given)	-2.1	x
CSc1sc(C(=O)OC(C)C)c2c1C(=O)CC(C)(C)C2	0.4	-0.382
O=C(Nc1cc2c(oc1=O)CCCC2=O)c1ccccc1	x	2.59
CC(C)N=C1SC(CC(=O)Nc2ccccc2)C(=O)N1C(C)C (stereo not given)	-0.1	-1.25
c1ccc(CNc2ccc(-c3nc4ncccc4o3)cc2)nc1	0.6	-1.57
COC(=O)c1c(-c2ccccc2Cl)noc1C	x	-1.38
Cn1c(Cc2cccs2)nnc1SCC(=O)N1CCNC1=O	1.0	x
CCOC(=O)C1CCN(c2ncnc3sccc23)CC1	2.2	x
O=C(OCN1C(=O)c2ccccc2C1=O)c1ccc2c(=O)n3c(nc2c1)CCC3	0.6	x
CCOc1ccc2nc(NC(=O)CN3CCN(S(=O)(=O)c4ccc(F)cc4)CC3)sc2c1	0.2	x
COCCN(Cc1nnc(-c2cccs2)o1)C(=O)C1CCN(S(=O)(=O)c2ccccc2)CC1	1.4	x

Next section.
SMILES	BasE inh	LANA-nucl inh
CSc1ccccc1NC(=S)NC1CC1	1.8	x
COC(=O)c1sc2ncccc2c1O	6.0	0.183
CCN(CC)C(=O)CSc1nnc(-c2cccnc2)n1-c1ccccc1	-3.1	2.44
COc1ccc(OCNC(=O)Nc2nncs2)cc1	3.4	0.113
COc1ccc(C/C(N)=N/OC(=O)Cc2ccccc2)cc1	2.3	-0.665
CC(NC1CC2CC=CC21)c1ccc(-n2ccnc2)cc1 (stereo not given)	0.6	x
CCn1c(O)c(N=N)c2ccccc21	3.5	x
CCOC(=O)C(C#N)C(c1ccc(F)cc1)c1ccco1 (stereo not given)	-11.7	0.875
CCCCNC(=O)C1=C(C)C(=O)OC12CCCCCC2	1.3	-0.93
CC(C)N(C(=O)CSc1nc2ccc(S(N)(=O)=O)cc2[nH]1)c1ccccc1	0.0	x
CC(C)C(=O)NCCc1c[nH]c2ccccc12	-0.2	-0.433
Cc1cc(NC(=O)Cn2c(=O)n(CC3CCC(C(=O)NC4CCCC4)CC3)c(=O)c3ccccc32)n[nH]1 (stereo not given)	1.1	0.287
Cc1cc(C)c2[nH]c(=O)c(NC(N)=S)nc2c1	-1.7	0.023
C=CCn1c2ccccc2c2nnc(SCCC(=O)O)nc21	0.2	-0.449
Cc1noc(C)c1-c1ccc(Cl)c(C(=O)O)c1	2.0	-0.45
Cc1ccc(C)c(C(=O)NCC(C)C)c1	-0.9	0.0945
Cc1cc(C(=O)Sc2ccc(Cl)cc2)nn1C(C)(C)C	-1.0	-1.12
Cc1c(Cc2ccccc2)c(Cl)n2c(nc3ccccc32)c1C#N	1.1	x
CCS(=O)(=O)N1Cc2ccccc2CC1C(=O)NCCc1ccccc1 (stereo not given)	1.8	x
N#Cc1c(-c2ccccc2)nc2sccn12	x	-1.1
Cc1ccc(CNC(=O)CSc2nc(N3CCCCC3)nc(N3CCCCC3)n2)cc1	0.6	0.6
CC(=O)N(CCC(c1ccccc1)c1ccco1)Cc1ccc(F)cc1 (stereo not given)	3.4	-0.663
Cc1cccc(CN2CCN(C(c3ccccc3)c3ccc(Cl)cc3)CC2)c1 (stereo not given)	-6.5&0.0	-0.184&0.431&-0.597
Clc1ccc(C2NCCS2)cc1 (stereo not given)	-1.2	-0.253
CCN(CC)C(=O)Cn1c(=O)oc2ccccc21	1.8	0.0945

Continued:
SMILES	BasE inh	LANA-nucl inh
O=S(=O)(c1ccc2c(c1)OCCO2)N1CCC(O)(c2ccc(Cl)cc2)CC1	-1.8	0.849
Oc1[nH]c2ccc(Br)cc2c1N=NC(=S)NCC1CCCO1 (stereo not given)	1.8	x
O=C(O)C1CCCCC1C(=O)N1CCc2ccccc21 (stereo not given)	-0.4	-1.01
O=C(CSc1nc(-c2ccccc2)cc(=O)[nH]1)N1CCc2ccccc21	3.5	0.212
N=c1c(C(N)=O)cc2c(=O)n3ccccc3nc2n1Cc1ccccc1	0.3	-0.528
N#CCn1nc2ccccc2n1	1.2	-0.278
Cc1oc(C)c(C(N)=O)c1C(N)=O	-0.5	-0.379
CCCCC(=O)Nc1ccc2c(c1)OCCO2	0.9	0.876
c1ccc(-c2noc(C3CCCO3)n2)nc1 (stereo not given)	2.6	x
CC1(C)CC(=O)c2cc(O)ccc2O1	2.1	0.968
CN(CCC(=O)O)Cc1cccnc1	0.3	0.44
CCn1c(CSc2ncnc3sccc23)nc2cc(S(=O)(=O)N(C)C)ccc21	2.2	x
N#C/C=C/N1CCN(C(c2ccccc2)c2ccccc2)CC1	0.8	x
CCC(C)NC(=O)C1CCC(CNS(=O)(=O)c2ccc(C)cc2)CC1 (stereo not given)	-0.7	0.636
Cc1cccc(C(=O)Nc2nc3ccc(C)cc3c(=O)[nH]2)c1	1.6	0.509
Cc1cc(C)c2sc(N3CCN(C(=O)C(C)(C)C)CC3)nc2c1	0.6	-0.698
c1ccc(C2CCC(NCCN3CCOCC3)CC2)cc1 (stereo not given)	0.3	-0.675
CC1CCN(c2nc3ccccc3nc2C(C#N)S(=O)(=O)c2cccc(Cl)c2)CC1 (stereo not given)	x	0.818
CCCCC1(COC(=O)CCC(=O)O)C(=O)N(c2ccccc2)N(c2ccccc2)C1=O	1.2&-0.3	0.547&-0.898
COCCNC(=O)c1nc(Nc2ccc(F)cc2F)c2ccccc2n1	-2.5	-0.828
CC(C)(C)C(O)CSc1nc2ccccc2[nH]1 (stereo not given)	-2.6	0.572
CC(NC(=O)C1CCN(c2ncccn2)CC1)c1ccncc1 (stereo not given)	3.0	-0.17
COc1c(C)cccc1C(=O)Nc1cc(Cl)ccc1N1CCOCC1	-3.5	1.58
O=c1[nH]c2ccc(F)cc2c(O)c1-c1ccccc1	2.5	x
CN(C)c1ccc(C(CNC(=O)CSc2nnc(-c3ccc(F)cc3)o2)c2c[nH]c3ccccc23)cc1 (stereo not given)	-0.9	x

The results go on:
SMILES	BasE inh	LANA-nucl inh
NC(=O)C1CCN(C(=O)C2CC(c3ccccc3Cl)=NO2)CC1 (stereo not given)	3.1	0.117
O=C(NC1C2CCCC1CN(C1CC1)C2)c1ccc(Cl)cc1 (stereo not given)	0.1	-0.526
Fc1ccc(-c2cc3c(nn2)Nc2ccccc2N3)cc1	-0.9	-0.19
COc1cccc(CNC(=O)CN(C)S(=O)(=O)c2ccc3c(c2)n(C)c(=O)c(=O)n3C)c1	-3.5	1.3
O=C(CS(=O)(=O)c1ccccc1)N1CCc2ccccc21	-1.5	0.728
COc1cc(OC)nc(NC(=O)CSc2nc3ccccc3s2)n1	-0.9	0.191
N#Cc1ccc(OCn2nnc3ccccc3c2=O)cc1	0.3	x
COc1ccc(C(CNC(=O)Nc2ccccc2)N2CCN(C)CC2)cc1 (stereo not given)	-0.3	0.459
CN(CC(=O)Nc1ccc(Cl)cc1)C(=O)c1ccc(OC(F)F)cc1	-0.4	x
O=C(CN1CCN(S(=O)(=O)N2CCCCC2)CC1)Nc1ccc(Br)cc1	-2.4	1.44
COc1ccc(N2CCN(C(=S)C3CCCCC3)CC2)cc1	3.7	x
FC(F)(F)c1nc2ccccc2n1CCOc1ccccc1	1.6	x
Cc1ccc(NC(=O)C2CC(=O)N(Cc3ccco3)C2)cc1 (stereo not given)	x	2.08
Cc1nc(-c2ccc3c(c2)CCN3Cc2nnc(-c3ccco3)o2)cs1	-4.7	x
CCn1c(C(=O)Nc2ccc(C(C)C)cc2)cc2sc(Cl)cc21	-0.7	-0.955
Cc1cc(/C=C2\C(=O)NC(=S)N(C)C2=O)c(C)n1C1CC1	6.1	0.559
O=C(COC(=O)CCN1C(=O)C2CC=CCC2C1=O)Nc1cc(Cl)cc(Cl)c1 (stereo not given)	0.2	x
COC(=O)c1ccc(N2CCCC2=O)cc1	-1.0	-0.506
COc1ccc(Cl)cc1NC(=O)c1nc2nc(-c3ccccc3)cc(C(F)(F)F)n2n1	1.3	x
O=C1CSC(c2ccc3c(c2)OCO3)N1c1ccc(Cl)cc1 (stereo not given)	1.2	-0.263
CCOC(=O)c1ccc(NC(=O)C2C(=O)N(C)C3(C)CC2c2ccccc2O3)cc1 (stereo not given)	0.1	x
O=C(OCC(=O)N1CCCc2ccccc21)C1COc2ccccc2O1 (stereo not given)	1.0	x
COc1ccc(CN=Cc2ccc(NC(C)=O)cc2)cc1	1.5	x
CCOC(=O)c1ccc(-c2c(C(=O)OCC)oc3cc(O)c(CC)cc3c2=O)o1	1.4	1.81

Record cards, as listed above.
Listed for COC(=O)c1ccc(N2CCCC2=O)cc1 = BasE inh: -1.0; LANA-nucl inh: -0.506
Listed for N#Cc1ccc(OCn2nnc3ccccc3c2=O)cc1 = BasE inh: 0.3; LANA-nucl inh: x
Listed for O=C(OCC(=O)N1CCCc2ccccc21)C1COc2ccccc2O1 (stereo not given) = BasE inh: 1.0; LANA-nucl inh: x

Copied from the results shown, 5 compounds:
SMILES	BasE inh	LANA-nucl inh
O=C1CSC(c2ccc3c(c2)OCO3)N1c1ccc(Cl)cc1 (stereo not given)	1.2	-0.263
CCOC(=O)c1ccc(NC(=O)C2C(=O)N(C)C3(C)CC2c2ccccc2O3)cc1 (stereo not given)	0.1	x
O=C(OCC(=O)N1CCCc2ccccc21)C1COc2ccccc2O1 (stereo not given)	1.0	x
COc1ccc(CN=Cc2ccc(NC(C)=O)cc2)cc1	1.5	x
CCOC(=O)c1ccc(-c2c(C(=O)OCC)oc3cc(O)c(CC)cc3c2=O)o1	1.4	1.81
